# FGF22 binding = binders of recombinant human FGF22 by thermal shift | Q9HCT0 | SYPRO orange fluorescence; percent of sucrose octasulfate shift, DMSO zero | calls only at 9.99 µM | 340,000 compounds, 1.5% hits | AID 651658;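 active means melting point raised past a set limit in the mean and every replicate; inconclusive means no clear call; three in four hits are not shown here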
# Target sequence (Q9HCT0 whole entry, looked up): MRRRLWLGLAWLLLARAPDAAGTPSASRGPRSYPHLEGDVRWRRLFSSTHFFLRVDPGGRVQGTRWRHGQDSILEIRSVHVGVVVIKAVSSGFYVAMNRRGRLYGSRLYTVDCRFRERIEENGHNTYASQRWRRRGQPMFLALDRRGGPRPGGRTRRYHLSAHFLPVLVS
# Calb FLC = affects C. albicans growth with fluconazole. C. albicans CaCi-2 (fluconazole-resistant clinical isolate) + fluconazole, Alamar Blue growth, 48 h. growth inhibition, % (test concentration not listed). 300,000 compounds, 0.57% hits;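 active means most replicates above 75%; inconclusive means exactly half above 75%; inactive means most below 75%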;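 further: all wells also contain fluconazole at 8 µg/ml as a sub-toxic cotreatment; 0% = median of DMSO wells and 100% = median of geldanamycin control wells; wells of about 8 µL received 7.5 nL stock; the first replicate is given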
# ALR inh = human ALR oxidase inhibition via reduced H2O2. purified ALR, DTT oxidation, H2O2 HRP-luminol luminescence. 290,000 compounds, 3.8% hits. inhibition, % (no concentration beside the values);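 active means mean and each replicate at 75% or more; inconclusive means only one of the two met; inactive means neither met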;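 further: stock transfer was 7.5 nL into about 7.5 µL; 0% = neutral wells and 100% = wells with inactivated enzyme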
# Target sequence (P55789 whole entry, looked up): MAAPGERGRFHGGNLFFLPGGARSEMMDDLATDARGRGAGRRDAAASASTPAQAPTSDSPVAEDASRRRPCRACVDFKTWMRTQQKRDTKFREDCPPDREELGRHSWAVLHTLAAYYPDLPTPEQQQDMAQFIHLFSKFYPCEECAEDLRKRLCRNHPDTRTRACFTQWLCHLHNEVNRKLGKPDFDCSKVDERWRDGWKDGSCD
# T cruzi repl = blocks replication of Trypanosoma cruzi. T. cruzi beta-gal in NIH3T3, luminescence, 90 h. inhibition, % (no concentration beside the values). 300,000 compounds, 1.4% hits;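 active means mean inhibition across valid replicates above about 55%, limit read from the data; inconclusive means mean below that limit but half or more replicates reach it; inactive means mean below it, under half of replicates reach it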;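 further: signal also drops with host cell toxicity which is not excluded here; 0% = plate median of DMSO wells and 100% = zero luminescence signal; higher percent means less beta-gal luminescence so fewer parasites; stock transfer was 50 nL into about 50 µL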
# AF4-AF9 inh = blocks AF4 peptide binding to human AF9. P42568. AlphaScreen, biotin-AF4 peptide binding to FLAG-AF9. inhibition, % at 10 µM. 350,000 compounds, 0.47% hits;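 active means every replicate reaching a set inhibition limit, whatever the replicate mean, cut at about 25% in these data; inconclusive means mean inhibition reaches that limit but some replicates miss it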;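 further: 0% = plate neutral control median and 100% = total signal loss; the record names both 10 and 1 µM as test concentration; the first replicate is given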
# Target sequence (P42568 whole entry, looked up): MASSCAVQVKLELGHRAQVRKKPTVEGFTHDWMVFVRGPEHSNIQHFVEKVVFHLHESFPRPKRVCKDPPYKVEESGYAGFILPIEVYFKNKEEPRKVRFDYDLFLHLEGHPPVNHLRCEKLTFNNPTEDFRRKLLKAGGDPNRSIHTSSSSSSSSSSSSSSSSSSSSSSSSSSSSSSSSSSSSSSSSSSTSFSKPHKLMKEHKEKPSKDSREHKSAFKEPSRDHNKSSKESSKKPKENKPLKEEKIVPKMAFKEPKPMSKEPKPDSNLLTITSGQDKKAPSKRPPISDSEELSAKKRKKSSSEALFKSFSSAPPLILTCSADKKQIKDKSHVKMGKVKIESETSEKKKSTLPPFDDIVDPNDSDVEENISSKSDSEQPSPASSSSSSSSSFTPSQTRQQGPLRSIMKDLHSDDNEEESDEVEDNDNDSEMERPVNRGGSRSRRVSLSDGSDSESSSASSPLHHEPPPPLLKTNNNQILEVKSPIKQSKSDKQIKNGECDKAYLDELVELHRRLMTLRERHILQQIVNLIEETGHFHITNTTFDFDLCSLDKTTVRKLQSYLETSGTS
# Beta apoptosis = beta cell apoptosis inhibition. INS-1E cytokine-induced death, ATP luminescence, 48 h; percent of positive-control rescue, neutral wells zero. protection from apoptosis, % (test concentration not listed). 300,000 compounds, 0.8% hits. AID 435005;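 active means all replicates at 75% or more, or half of them and the mean; inconclusive means half reach 75% but not the mean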;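 further: 0% = cytokine-treated negative control wells and 100% = positive control rescue; higher means more ATP so stronger rescue from cytokine killing; wells of about 40 µL received 100 nL stock; the first replicate is given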
# RanGTP-Impb inh = inhibitors of RanGTP-importin-beta interaction, primary screen, biochemical, FRET, CFP-Ran, YFP-importin-beta, homogeneous | cell-free CFP-Ran/YFP-importin-beta FRET ratio | inhibition, % (no concentration beside the values) | 300,000 compounds, 1.1% hits;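 active means most replicates above 15%; inconclusive means exactly half above 15%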;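 further: 0% = DMSO wells and 100% = Ran loaded with GDP instead of GTP; wells of about 40 µL received 100 nL stock; the first replicate is given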
# Ecoli rRNA inh = inhibits bacterial ribosomal RNA function over humanized ribosomes; E. coli WT GFP vs humanized-ribosome RFP mutants, fluorescence, 24 h; hits give low values; DMSO median 0, no signal -100; GFP signal change (wild-type ribosome), % (no concentration beside the values); 350,000 compounds, 1.6% hits;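 active means significant combined selectivity score with lowered wild-type GFP, culture density cut under 30%, mutant RFP and density less affected; inactive means any of these conditions unmet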; further: one replicate is shown; some compounds called inactive have numbers as strong as hits
# Ecoli rRNA inh OD600 = further read-out of Ecoli rRNA inh, marked with its call; OD600 change, %; measured here: OD600 growth;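 optical density of the mix in the first replicate; 0 = DMSO median and -100 = no signal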
# Ecoli rRNA inh RFP = recorded beside Ecoli rRNA inh, whose call it bears; RFP signal change, %; measured here: RFP humanized mutant strains;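 first replicate; 0 = DMSO median and -100 = no signal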
# * = called active by the depositor; i = inactive; ? = inconclusive; . = no result given. These rows are one share of the data. The share of hits here may be higher or lower than overall.
SMILES,FGF22 binding,Calb FLC,ALR inh,T cruzi repl,AF4-AF9 inh,Beta apoptosis,RanGTP-Impb inh,Ecoli rRNA inh,Ecoli rRNA inh OD600,Ecoli rRNA inh RFP
O=C(/C=C\Nc1ccccc1Br)c1ccc2c(c1)OCO2,i,-20,1,10,-0.5,18,0.8,1,-7,15
O=C(Nc1nc(-c2cccs2)cs1)c1ccc(Cl)cc1,.,-28,26,15,.,1,-4.2,.,.,.
Cc1ccc(S(=O)(=O)NCCCn2ccnc2)cc1,i,-4,-3,7,-24,-6,-0.5,5,20,-3.2
COc1cccc(CNC(=O)c2nnn(CC(=O)Nc3cc(C)ccc3C)c2N)c1,i,50,-2,-10,-1.1,2,1.2,18,31,3.1
O=C(NCCn1cccn1)C1CCC(=O)N(CCc2cccc(F)c2)C1 (centres undefined),i,0,-10,-6,-0.8,-1,3.1,3,-1,-1.1
COc1ccc(C(=O)N/N=C(\CCC(=O)O)c2ccc(C(C)(C)C)cc2)cc1OC,i,2,18,-21,0.4,-3,3.6,3,-1,1.4
COCCNC(=O)c1cccc(C)c1[N+](=O)[O-],i,?,.,-18,1.3,-1,-1.2,47,11,-7.0
O=C(c1ccccc1)n1ccn(-c2ccccc2)c1=S,.,4,26,5,.,-1,2.3,.,.,.
CC(C)(C)NC(=O)CSc1nc2[nH]ncc2c(=O)[nH]1,i,5,1,-5,-1.8,-1,-1.9,11,11,0.1
COc1cccc(-c2cc(C(=O)Nc3nc4ccccc4s3)c3ccccc3n2)c1,.,-5,-2,16,.,15,2.4,.,.,.
CCc1noc(C)c1C(=O)N1CCCC(C(=O)c2cc(F)ccc2F)C1 (centres undefined),i,16,.,3,-0.3,1,0.8,-3,1,0.4
Brc1ccc(CSc2nnc(-c3cccnc3)o2)cc1,i,11,-6,-5,-1.9,-15,-0.9,1,-3,-1.6
O=C(NC1CC2CCC(C1)N2Cc1ccccc1)c1cccc(F)c1 (centres undefined),i,-4,-4,8,0.2,-11,-0.2,4,7,2.4
CC1=C(C(=O)OC2CCCCC2)C(c2ccc(F)cc2)NC(=O)N1 (centres undefined),i,11,3,7,3.8,-8,2.0,-8,-23,2.9
Fc1ccc(C(c2nnnn2Cc2ccccc2)N2CCSCC2)cc1 (centres undefined),.,-4,-1,-4,-6.5,-2,0.6,-13,-17,4.9
CC(=O)N1N=C(c2ccc(C(C)(C)C)cc2)OC1(C)C,i,0,-16,8,-4.7,0,0.7,18,8,3.5
O=C(CSc1ccc2nnc(-c3cccnc3)n2n1)NCc1ccco1,i,18,.,-7,11,-3,2.1,14,14,3.6
CN(C(=O)COC(=O)CNC(=O)C1CCCCC1)c1ccccc1,i,.,-4,.,-5.7,-7,.,6,10,-2.2
COC(=O)c1cccc(N(CC(=O)NC2CCCC2)C(=O)CNC(=O)c2cccs2)c1,i,-2,.,-9,2.2,-7,-3.3,0,-5,-1.7
CCN=C1S/C(=C\c2cc(Br)c(O)c(OC)c2)C(=O)N1CC,i,8,61,-1,5.5,.,4.9,-1,-7,2.3
COCCNC(=S)N/N=C/c1ccc(OCc2ccc(C(=O)OC)cc2)c(OC)c1,.,-2,0,10,.,9,-1.3,.,.,.
Cc1csc(NC(=O)Cc2ccc(F)cc2)n1,i,-7,.,3,-26,-2,2.0,-7,-9,-1.5
CC(C)Oc1ccc(CNC(=O)C2CCCN(S(=O)(=O)N3CCOCC3)C2)cc1 (centres undefined),i,-2,15,-2,-0.2,-7,1.5,18,10,2.2
Cn1c(=O)c(C(=O)COC(=O)c2cc(C(F)(F)F)nc3c(C(F)(F)F)cccc23)c(N)n(CC2CC2)c1=O,i,-2,-7,-1,0.3,-6,-2.9,15,6,11
CN(Cc1ccccc1)C(=S)NC(=O)C1CCCCC1,i,-15,-18,-5,0.5,-3,2.3,0,-5,6.2
O=C(N/N=C/c1ccc([N+](=O)[O-])o1)c1cc(-c2ccncc2)nc2ccccc12,.,26,-79,50,.,29,-2.7,.,.,.
CSc1ccc(/C=N/n2nnnc2N)cc1,.,7,-4,-4,.,-4,1.8,.,.,.
Cc1cccc(OCC(=O)NCC(=O)N/N=C/c2cc(Br)cc(Br)c2O)c1,i,-39,.,23,5.0,55,9.7,-35,-54,-8.8
COc1cc(OC)cc(-c2c(C#Cc3ccsc3)c3cc(-c4cnc(OC)nc4)ccc3n2C)c1,i,.,0,.,-2.6,-3,.,4,-1,-6.2
CCOC(=O)[C@@H]1[C@H]2COc3cc(OC)ccc3[C@@H]2N2C(=O)N(c3cccc(C)c3)C(=O)[C@@]12C,i,1,-20,-12,3.2,-6,4.8,3,3,20
CCc1nnc(NS(=O)(=O)c2ccc(NS(=O)(=O)c3ccccc3[N+](=O)[O-])cc2)s1,i,-6,-11,-13,-0.9,-7,0.9,13,11,-0.4
O=C(c1cc(COc2cccc3cnccc23)on1)N1CCCC(CCCO)C1 (centres undefined),i,5,-9,-21,3.2,117*,3.6,-12,-12,-3.0
CCN(CC)CCNC(=O)Cc1nn(Cc2ccccc2)c(=O)c2ccccc12,i,-8,6,3,-1.0,-8,4.7,14,20,2.9
C/C(CC(=O)Nc1cc(C)ccn1)=N\NC(=O)C(=O)NC(C)C,i,6,1,6,-0.2,-14,2.0,15,9,1.6
Cc1cc(C)n2nc(C(=O)NC(c3ccccc3)c3ccccc3)nc2n1,i,9,-14,2,-4.9,2,-0.4,-16,-15,3.1
N#CC1=C2N=C(N)c3ccccc3N2C2=C(C(=O)CCC2)C1c1ccccc1F (centres undefined),i,6,-25,14,9.3,-2,-12,-2,-8,1.3
Cn1cc(CNCc2cn(C)nc2-c2ccc(C3CCCCC3)cc2)cn1,i,-3,.,26,4.3,0,-5.9,-20*,-9.8*,-1.6*
CC(C)Nc1nnc(SC(C)C(=O)N(C)C2CCCCC2)s1 (centres undefined),i,-2,8,-3,4.0,.,2.7,11,13,1.4
CC(C)CNC(=O)C(=O)NNC(=O)C1CCCCC1,i,10,-2,-7,?,0,-1.6,12,8,-4.1
CS(=O)(=O)Nc1cccc(C2=NN(S(=O)(=O)c3ccc(F)cc3)C(c3cccs3)C2)c1 (centres undefined),.,27,3,9,.,2,3.5,.,.,.

# Overlap with the part before: 2 entries, followed by the next part.
SMILES,FGF22 binding,Calb FLC,ALR inh,T cruzi repl,AF4-AF9 inh,Beta apoptosis,RanGTP-Impb inh,Ecoli rRNA inh,Ecoli rRNA inh OD600,Ecoli rRNA inh RFP
CC(C)CNC(=O)C(=O)NNC(=O)C1CCCCC1,i,10,-2,-7,?,0,-1.6,12,8,-4.1
CS(=O)(=O)Nc1cccc(C2=NN(S(=O)(=O)c3ccc(F)cc3)C(c3cccs3)C2)c1 (centres undefined),.,27,3,9,.,2,3.5,.,.,.
O=C(Nc1cccc2cccnc12)c1ccc2c(c1)OCCO2,.,-2,-2,-14,.,.,0.9,.,.,.
O=C1CNC(=O)/C1=C/c1ccccc1,i,-4,20,-13,-5.2,-5,-1.4,16,12,-0.4
O=C(CN1C(=O)NC2(CCCCCC2)C1=O)Nc1ccc(Cl)cc1Cl,i,.,-1,.,-0.1,-6,.,.,.,.
O=C(Nc1ccccc1C(=O)O)c1ccc(Cl)c(S(=O)(=O)N2CCOCC2)c1,.,4,20,8,.,-4,?,.,.,.
CCOC(=O)C1=C(O)/C(=C/c2ccccn2)SC1=Nc1ccc(Cl)cc1,.,-4,-5,10,.,9,1.5,.,.,.
Cn1ncc([N+](=O)[O-])c1C(=O)Nc1ccc(C2CCCCC2)cc1,i,7,-32,8,0.6,.,0.7,3,5,-0.3
C=CCNC(=O)c1onc(CCl)c1C(=O)OC,i,-2,30,-10,2.5,-7,-0.7,13,10,-13
O=C(Oc1ccccc1Cl)C1CCN(C(=O)c2ccc(F)cc2)CC1,i,1,4,-21,-4.3,2,1.6,2,-1,0.3
Cc1cccc(N2CC(=O)N(c3cccc(C)c3)CC2=O)c1,.,25,-10,-6,.,-6,6.2,.,.,.
CCc1nnc(NC(=O)CSc2nnc(COc3ccccc3C)o2)s1,.,61,-8,-1,.,-6,3.4,.,.,.
COc1ccc(CN(C)CC(=O)Nc2sc3c(c2C#N)CCC3)c(OC)c1,i,7,19,11,6.4,-3,6.4,-22,-21,0.0
CCOc1ccc(S(=O)(=O)N2CCC(C(N)=O)CC2)c2ccccc12,.,.,-3,10,.,-3,5.7,.,.,.
c1ccc2c(-c3nnc(SCc4cn5ccccc5n4)o3)c[nH]c2c1,.,-17,34,1,.,-2,4.4,.,.,.
C[C@H](CO)N1C[C@H](C)[C@@H](CN(C)CC2CCCCC2)Oc2ccc(NS(C)(=O)=O)cc2C1=O,i,.,1,.,-0.9,-2,.,3,15,-0.1
CN(CC(=O)Nc1ccc(F)cc1)C(=O)c1ccccc1OCc1ccc(F)cc1,i,-1,-1,4,-1.4,-1,0.3,-7,-16,-2.6

# Entries from the list above with an aryl methoxy group:
SMILES,FGF22 binding,Calb FLC,ALR inh,T cruzi repl,AF4-AF9 inh,Beta apoptosis,RanGTP-Impb inh,Ecoli rRNA inh,Ecoli rRNA inh OD600,Ecoli rRNA inh RFP
COc1cccc(CNC(=O)c2nnn(CC(=O)Nc3cc(C)ccc3C)c2N)c1,i,50,-2,-10,-1.1,2,1.2,18,31,3.1
COc1ccc(C(=O)N/N=C(\CCC(=O)O)c2ccc(C(C)(C)C)cc2)cc1OC,i,2,18,-21,0.4,-3,3.6,3,-1,1.4
COc1cccc(-c2cc(C(=O)Nc3nc4ccccc4s3)c3ccccc3n2)c1,.,-5,-2,16,.,15,2.4,.,.,.
CCN=C1S/C(=C\c2cc(Br)c(O)c(OC)c2)C(=O)N1CC,i,8,61,-1,5.5,.,4.9,-1,-7,2.3
COCCNC(=S)N/N=C/c1ccc(OCc2ccc(C(=O)OC)cc2)c(OC)c1,.,-2,0,10,.,9,-1.3,.,.,.
COc1cc(OC)cc(-c2c(C#Cc3ccsc3)c3cc(-c4cnc(OC)nc4)ccc3n2C)c1,i,.,0,.,-2.6,-3,.,4,-1,-6.2
CCOC(=O)[C@@H]1[C@H]2COc3cc(OC)ccc3[C@@H]2N2C(=O)N(c3cccc(C)c3)C(=O)[C@@]12C,i,1,-20,-12,3.2,-6,4.8,3,3,20
COc1ccc(CN(C)CC(=O)Nc2sc3c(c2C#N)CCC3)c(OC)c1,i,7,19,11,6.4,-3,6.4,-22,-21,0.0

# High-throughput results as filed in PubChem.
